# Source: PubChem
# TDP1 inh: TDP1 (human) enzyme inhibition | Q9NUW8 | recombinant TDP1, AlphaScreen DNA substrate cleavage | AID 485290 | Potency, µM (series often up to 130 µM), inactives show at the top dose activity change, negative = inhibition, hits mostly inhibitors | 350,000 tested, 0.28% active; note: nearly all actives have a fitted effect of over 40% in size
# Target sequence (Q9NUW8 whole entry, looked up): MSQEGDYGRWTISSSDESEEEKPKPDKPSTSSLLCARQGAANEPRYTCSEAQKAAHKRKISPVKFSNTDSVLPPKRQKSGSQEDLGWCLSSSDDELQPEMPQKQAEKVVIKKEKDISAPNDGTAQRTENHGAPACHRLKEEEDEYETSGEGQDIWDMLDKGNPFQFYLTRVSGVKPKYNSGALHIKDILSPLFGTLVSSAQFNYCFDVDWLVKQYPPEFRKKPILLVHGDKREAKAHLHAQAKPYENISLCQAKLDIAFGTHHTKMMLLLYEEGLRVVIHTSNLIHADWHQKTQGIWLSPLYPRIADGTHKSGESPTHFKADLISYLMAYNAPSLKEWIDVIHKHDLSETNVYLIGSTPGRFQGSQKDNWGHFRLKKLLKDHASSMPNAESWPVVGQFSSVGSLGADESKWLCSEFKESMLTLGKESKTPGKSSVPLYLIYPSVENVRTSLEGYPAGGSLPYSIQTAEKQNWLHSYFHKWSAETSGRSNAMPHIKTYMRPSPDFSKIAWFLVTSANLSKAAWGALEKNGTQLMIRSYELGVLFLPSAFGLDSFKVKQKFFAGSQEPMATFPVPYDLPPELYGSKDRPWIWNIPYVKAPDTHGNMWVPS
#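 Here, a 5' biotin and 3' phosphotyrosine-FITC DNA oligonucleotide reports Tdp1 activity: intact substrate bridges AlphaScreen beads, while cleavage leaves a 3' phosphate and drops signal. All incubations at room temperature.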
# N370S GC: inhibits or activates N370S mutant glucocerebrosidase | Potency, µM (highest dose often 59.4 µM), for the others: at the top dose activity change, negative = inhibition, most hits filed as inhibitors | AID 2101 | P04062 | N370S GC spleen homogenate, 4MU-glucoside fluorescence | 330,000 tested, 0.092% active;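 note: 0% = full enzyme activity and -100% = no enzyme basal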
# * hit, by the source's call; u = inconclusive; x = not tested or not shown; & = joins results of further samples; [ ] = dose if it differs, or a comment. Calls come from the whole dose curve; as a rule, active = well fitted curve in the direction sought with a large enough effect; inconclusive = small, poorly fitted or top-dose-only effect, or another doubt; inactive = no such curve, though single readings can be large; an effect the other way counts as inactive or inconclusive. Unless noted, % is set by controls: 0 for no effect and ±100 for the full control effect; potency is the fitted concentration of half-maximal effect. This is a subset; most or all hits stand in other tables.
TDP1 inh | N370S GC | mol
-2% | 11% | COc1ccc(CNC(=O)c2noc3c2CCCCC3)cc1
x | 26% | O=C(N/N=C/c1ccccc1F)c1ccccc1OCc1ccccc1
-2% | 3% | CC(C(=O)NCC1CCCO1)c1ccc([N+](=O)[O-])cc1 (centres undefined)
x | 6% | CCSc1nc2ccccc2c(=O)n1CCc1ccc(OC)c(OC)c1
0% | -8% | N#Cc1ccc(-c2ccc(OCC(=O)NCCCN3CCCC3=O)cc2)cc1
x | u | CC(C)[C@H](NC(=O)[C@H](Cc1ccccc1)n1c(=O)[nH]c2ccccc2c1=O)C(=O)N[C@@H](Cc1ccccc1)C(=O)O
3% | 7% | CN(C)S(=O)(=O)N(Cc1ccc(Br)cc1)c1ccccc1
-3% | 5%[2.35 µM] | O=C(NCC1CCCO1)c1ccccc1-c1nc(-c2ccccc2)no1 (centres undefined)
x | -10% | CC(=O)CN1C(=O)NC2(CCCc3ccccc32)C1=O (centres undefined)
0% | -15% | CN(Cc1ccc(Cl)c(Cl)c1)C(=O)CN1C(=O)NC2(CCCC2)C1=O
3% | -2% | CC(=O)c1cccc(N2C(=NC(=O)C3CC3)SC3CS(=O)(=O)CC32)c1 (centres undefined)
11% | -19% | COc1ccc(CNC(=S)NCc2ccc(OC)cc2)cc1
-3% | -4% | CC(C)N1C(=O)CCC1C(=O)NCc1ccco1 (centres undefined)
8% | 3% | Cc1ccc(N(C(=O)Cn2nnc(-c3cccs3)n2)C(C(=O)NC2CCCC2)c2ccncc2)cc1 (centres undefined)
11% | -4% | C[C@@]12CCC(=O)C=C1C=CC1C2CC[C@]2(C)C1CC[C@@]21CCC(=O)O1 (some centres undefined)
8% | 17% | Nn1c(SCC(=O)Nc2ccccc2F)nc2ccccc2c1=O
2% | -19% | COc1ccc(CCC(=O)NNC(=O)Nc2ccccc2Cl)cc1
3% | 3% | O=C(NN=C1CCCC1)NC1CCCCC1
2% | -4% | Cc1ccc(S(=O)(=O)N2CCC(C(=O)NCc3ccncc3)CC2)cc1
x | 11% | Cc1c(Cl)c(C(F)F)nn1CC(=O)NC1C(=O)N2C(C(=O)O)=C(CSc3nnnn3C)CSC12 (centres undefined)

# Brought forward from above: two entries, then new ones.
TDP1 inh | N370S GC | mol
2% | -4% | Cc1ccc(S(=O)(=O)N2CCC(C(=O)NCc3ccncc3)CC2)cc1
x | 11% | Cc1c(Cl)c(C(F)F)nn1CC(=O)NC1C(=O)N2C(C(=O)O)=C(CSc3nnnn3C)CSC12 (centres undefined)
x | -2% | COC(=O)c1ccc(CN2C(=O)NC(Cc3c[nH]c4ccccc34)C2=O)cc1 (centres undefined)
0% | 3% | Fc1ccc(Nc2nc(-c3ccncc3)nc3ccccc23)cc1F
x | -10% | Cc1cc(OC(C)C(=O)NCC2CCC(C(=O)O)CC2)c2c(C)cc(=O)oc2c1 (centres undefined)
-10% | -8% | O=C(NCCCc1ccccc1)c1cc(COc2ccc(F)cc2Cl)on1
0% | -10% | O=C(CCc1nnc2ccc(NCc3ccco3)nn12)N1CCN(c2ccccc2F)CC1
-2% | 8% | CSc1nsc(SC)c1C(=O)Nc1ccc(C)cc1
7% | -11% | CCOC(=O)c1cnc2c(C)c(Cl)ccc2c1N1CCN(CC)CC1
1% | 1% | CN(C)S(=O)(=O)c1cccc(NC(=O)CN2C(=O)C3C4C=CC(C4)C3C2=O)c1 (centres undefined)
3% | -10% | Cc1ccc(S(=O)(=O)NNC(=O)c2ccccc2-n2cccc2)cc1
6% | -19% | CCCCOc1ccc(C(=O)N/C(=C\c2cccc([N+](=O)[O-])c2)C(=O)OCCC)cc1
x | -18% | CNC[C@H](CC1CCCCC1)NC[C@H](CO)NCCc1cccc(C(F)(F)F)c1
5%&2% | 6% | CC(=O)c1ccc(NC(=O)CC2Nc3cccc4cccc(c34)NC2=O)cc1 (centres undefined)
-2% | 10% | CC(=O)Nc1ccc2nc(-c3cccnc3)[nH]c2c1
3% | 18% | COc1ccc(NS(=O)(=O)c2ccc(OC)c(NC(=O)CCC3CCCCC3)c2)cc1
5% | -4% | COc1ccc(N2CCN(Cc3nc4ccsc4c(=O)[nH]3)CC2)cc1
9% | -6% | O=C(CCN1C(=O)S/C(=C\c2ccccc2)C1=O)Nc1ccc(S(=O)(=O)Nc2nccs2)cc1
-5% | 1% | COc1cc(C)c(C(=O)CSc2nnc(CNC(=O)c3ccco3)n2C)cc1C
3%[56.1 µM] | -2% | COc1cc(OC)c(S(=O)(=O)N2CCOCC2)cc1S(=O)(=O)N1CCOCC1
3% | 25% | Fc1ccc(CSc2nnc(CN3CCOCC3)n2-c2ccccc2)c(Cl)c1
1% | 2% | COC(=O)CSc1nnc(-c2ccc(NS(=O)(=O)c3ccccc3)cc2)o1
2% | 1% | COc1ccccc1OCC(=O)NCC(c1cccs1)N1CCOCC1 (centres undefined)
4% | 2% | CC(C)N(C(=S)Nc1cccnc1)c1ccccc1
-4% | 0% | Cc1ccc(CNC(=O)CCc2nc(-c3cccs3)no2)cc1
9% | 8% | COc1ccc(CNC(=O)N2CCN(c3ccc(F)cc3)CC2)cc1Cl
1% | -1% | CC(=O)Nc1nonc1NC(=O)CSc1ccccn1
4% | -7% | COCCn1c(C)nnc1SCC(=O)Nc1ccccc1[N+](=O)[O-]
4% | -8% | CN1CCN(C(=O)/C=C/c2ccc(Cl)c(Cl)c2)CC1
x | -4% | COc1ccccc1N1CCN(/N=C(\C)c2ccc(O)cc2)CC1
2% | 3% | COCc1cc(=O)[nH]c(/N=C(\N)Nc2ccccc2C)n1
3% | -3% | C=CCOc1c(Cl)cc(CNn2cn[nH]c2=S)cc1OC
0% | 5% | Cc1c(NC(=O)C(CC(=O)O)NCc2ccco2)c(=O)n(-c2ccccc2)n1C (centres undefined)
5% | 3% | CCNC(=O)NCc1c(C)c(C)n(Cc2ccccc2)c1-n1cccc1
13% | 0% | COc1ccc(C2CC(c3ccc(OC)cc3)n3nc(NC(=O)c4cccs4)nc3N2)cc1 (centres undefined)
0% | 5% | CC(C)(C)c1ccccc1OCCCCCn1ccnc1
x | -1% | COc1ccc(CCNC(=O)CSc2n[nH]c(N)n2)cc1
1% | 6% | Brc1ccc(-c2nc(-c3cccnc3)no2)o1
x | 0% | COc1ccc(C(=O)N/C(=C\c2ccc3c(c2)OCO3)C(=O)N2CCOCC2)cc1
7% | u | Cc1ccsc1/C=N/NC(=O)CSCc1ccc(Cl)cc1
3% | -14% | Cc1cc(C(=O)NC(Cc2ccccc2)C(=O)O)c(C)o1 (centres undefined)
1% | -1% | CC(C)CCn1c(SCCN2CCOCC2)nc2c1c(=O)[nH]c(=O)n2C

# Entries from the list above that have a nitro group on carbon (3):
TDP1 inh | N370S GC | mol
-2% | 3% | CC(C(=O)NCC1CCCO1)c1ccc([N+](=O)[O-])cc1 (centres undefined)
6% | -19% | CCCCOc1ccc(C(=O)N/C(=C\c2cccc([N+](=O)[O-])c2)C(=O)OCCC)cc1
4% | -7% | COCCn1c(C)nnc1SCC(=O)Nc1ccccc1[N+](=O)[O-]

# More records
TDP1 inh | N370S GC | mol
0% | -24% | Cc1cc(C(=O)NC2CCN(Cc3ccccc3)CC2)n[nH]1
3% | -3% | COc1ccc(N2C(=O)CC(N(CCc3ccccc3)C(=O)/C=C/C(=O)O)C2=O)cc1 (centres undefined)
6% | 4% | Cc1ccc(S(=O)(=O)NCc2cccnc2)s1
1% | -14% | NCCc1nnc(SCc2ccccc2Cl)o1
2% | 1% | OCC#CCSc1nnc(-c2ccc(Br)cc2)o1
8% | 18% | C=CCn1c(=O)c(C(=O)Nc2cccnc2)c(O)c2ccccc21
5% | -3% | Cc1cc(SCCOc2ccccc2)nc(N)n1
3% | -6% | CC1(C)NC(=O)N(CCOCCOc2ccccc2-c2ccccc2)C1=O
5% | -2% | Cc1cc(N2CCCC2)nc2ccccc12
x | -14% | COc1cc(NC(=O)C2=CC(c3cccs3)=NS(=O)(=O)N2C)cc(OC)c1OC
4% | 5% | O=C(CCC(=O)Nc1nnc(C2CCCCC2)s1)NCc1ccccc1
3% | 1% | O=C(COC(=O)CNC(=O)c1ccccc1)Nc1cccc(Br)c1
11% | -7% | CCOC(=O)CCCCC(=O)c1[nH]c(=O)[nH]c1CSc1nc(C)cc(=O)[nH]1
4% | -7% | CCOC(=O)C1(CCOc2ccccc2)CCN(Cc2ccc(OCCO)cc2)CC1
-3% | -4% | COc1ccccc1OCCNC(=O)CSC(=S)N1CCCC1
x | -14% | Cc1ccc(NC(=O)NCCN2CCCCC2)cc1C
x | -1% | CCc1ccccc1N(CC(=O)NC(C)c1ccccc1)S(C)(=O)=O (centres undefined)
7% | -5% | N#CCc1nn(-c2ccc(Cl)cc2)c(N)c1C#N
2% | 3% | COc1ccc(C(CNC(=O)/C=C/c2c(Cl)nc3ccccn23)N(C)C)cc1 (centres undefined)
5% | 2% | C=CCNC(=O)/C=C/c1c(F)cccc1Cl

# Exported field by field: 4 of the compounds above
O=C(CCc1nnc2ccc(NCc3ccco3)nn12)N1CCN(c2ccccc2F)CC1
- TDP1 inh: 0%
- N370S GC: -10%
CCOC(=O)c1cnc2c(C)c(Cl)ccc2c1N1CCN(CC)CC1
- TDP1 inh: 7%
- N370S GC: -11%
COCCn1c(C)nnc1SCC(=O)Nc1ccccc1[N+](=O)[O-]
- TDP1 inh: 4%
- N370S GC: -7%
COc1ccc(CNC(=S)NCc2ccc(OC)cc2)cc1
- TDP1 inh: 11%
- N370S GC: -19%

# Continuation.
TDP1 inh | N370S GC | mol
0% | -5% | CN1CCCC(OC(=O)/C(C#N)=C/c2ccccc2)C1 (centres undefined)
4% | -3% | Cc1cc(C)nc(N2CCC(C(=O)N3CCN(c4cc(Cl)ccc4C)CC3)CC2)n1
-3% | 27% | CN(C(=O)COC(=O)CCc1c[nH]c2ccccc12)C(c1ccccc1)c1ccccc1
-3% | -13% | COc1cc([N+](=O)[O-])ccc1NC(=O)C[n+]1cccc(C)c1
0% | 0% | CN(C(=O)COC(=O)CNC(=O)CNC(=O)c1ccc(Cl)cc1Cl)c1ccccc1
x | 6% | CN(CC(=O)Nc1ccc(F)c(F)c1F)C(=O)CCCSc1nc2ccccc2[nH]1
x | 18% | Cc1cc(C)c(C#N)c(SCc2ccccc2)n1
3% | 6% | Cc1ccc2nc(NC(=O)c3ccc(OCC4CCCO4)cc3)sc2c1 (centres undefined)
-3% | 1% | O=C(Nc1ccc(CN2CCOCC2)cc1)c1cc2ccccn2n1
0% | -7% | C#CC(C)(C)NC(=O)c1ccc(-c2ccccc2F)cc1
0% | 0% | CCOc1cccc2cc(C(=O)N3CCc4ccccc43)c(=O)oc12
7% | 4% | COC(=O)c1ccc(NS(=O)(=O)NC(=O)c2c[nH]c3ccccc23)cc1
9%[56.1 µM] | 9% | O=C(C1CCC1)N1CCc2cc(S(=O)(=O)Nc3ccc4c(c3)OCO4)ccc21
0% | 15% | CCn1ncc(NC(=S)Nc2ccc3c(c2)OCO3)c1C(N)=O
-5% | 1% | CC(C)c1ccc(-c2nnn(CCC#N)n2)cc1
2% | -17% | Cc1ccc(C)c(S(=O)(=O)N2CCN(C(=O)C3CCN(c4ncnc5sc(C)c(C)c45)CC3)CC2)c1
1% | 1% | O=C(Nc1ccccc1Cl)N1CCN(c2ccc3nncn3n2)CC1
3% | 4% | O=C(CSc1ccc(-c2ccco2)nn1)NCc1ccccc1Cl
x | 1% | COc1ccc(CNc2nc3ccccc3n2C(C)C)cc1
4% | 8% | CC(c1nc2ccccc2c(=O)[nH]1)N(C)CCOc1ccc(Cl)cc1 (centres undefined)

# Sorted by value in TDP1 inh (smallest number first): some entries from above.
canonical_smiles | TDP1 inh | N370S GC
O=C(Nc1ccc(CN2CCOCC2)cc1)c1cc2ccccn2n1 | -3% | 1%
CN(C(=O)COC(=O)CNC(=O)CNC(=O)c1ccc(Cl)cc1Cl)c1ccccc1 | 0% | 0%
Cc1ccc(C)c(S(=O)(=O)N2CCN(C(=O)C3CCN(c4ncnc5sc(C)c(C)c45)CC3)CC2)c1 | 2% | -17%
CC(c1nc2ccccc2c(=O)[nH]1)N(C)CCOc1ccc(Cl)cc1 (centres undefined) | 4% | 8%

# (listing goes on)
TDP1 inh | N370S GC | mol
3% | -16% | CC1CN(C(=O)c2cccc(S(=O)(=O)N3CCN(c4ccc(F)cc4)CC3)c2)CC(C)O1 (centres undefined)
6% | 10% | COc1cccc(N(CC(=O)NCC2CCCO2)C(=O)CNS(=O)(=O)c2ccccc2)c1 (centres undefined)
2% | -7% | Cc1ccccc1-n1ncc2c(SCC(=O)NC3CCCC3)ncnc21
8% | 18% | Cc1nn(-c2ccccc2)c2c1C(c1ccc([N+](=O)[O-])cc1)N1C(=N2)C(=O)Nc2ccccc21 (centres undefined)
5% | 6% | Cc1cc(NC(=O)CCCn2cc([N+](=O)[O-])cn2)n(Cc2ccc(F)cc2)n1
3% | 2% | Clc1ccc(-c2csc(-c3ccncc3)n2)cc1
0% | -6% | Cc1cc(C)c2sc(N)nc2c1
x | -11% | COc1ccc(-c2n[nH]c(=S)nc2-c2ccc(OC)cc2)cc1
-4%[56.1 µM] | -14% | CNCC[C@@H](Oc1ccccc1C)c1ccccc1
6% | 16% | CC12CCC(C(=O)NC(c3ccccc3)c3ccccc3)(OC1=O)C2(C)C (centres undefined)
